# NPYLR7 agonist: mosquito NPYLR7 agonism; HEK293T NPYLR7/Galpha15, GCaMP6s calcium fluorescence; actives 0.15% (n = 270,000); AID 1259423; activation, % at 10 µM; in the data active = activation above about 40%;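 also: 0% = vehicle and 100% = reference agonist at the receptor; some compounds past the cut are filed as inactive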
# NPYLR7 agonist max-min: also measured in NPYLR7 agonist; calls as there; activation, %; measured here: Max-Min RFU normalised activation; some inactives read as strong as hits;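 span of the calcium signal over five minutes; 0% = vehicle and 100% = native peptide agonist; compound fluorescence can raise it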
# An asterisk follows results filed as active. Some of the compounds tested, so the mix of outcomes need not match the whole.
# The line under a structure holds: NPYLR7 agonist | NPYLR7 agonist max-min
Fc1cccc(CN2CCN(Cc3cnc(-c4ccco4)nc3)CC2)c1
 : 4.8 | 4.1
Cc1ccc(S(=O)(=O)NCCc2sc3nc(-c4ccc(F)cc4)nn3c2C)cc1C
 : -2.5 | -4.6
O=C(COC(=O)COc1ccc2ccccc2c1)NC1CCCC1
 : -4.2 | -8.5
CCS(=O)(=O)Nc1cccc(-c2ccc3nnc(-c4cccs4)n3n2)c1
 : -12.4 | -10.1
Cn1nc(-c2ccc(NS(C)(=O)=O)cc2)ccc1=O
 : 0.2 | -0.8
C=CCN(CC(=O)N1CCc2sccc2C1COc1cccc(F)c1)C(=O)c1cccs1 (stereo not drawn)
 : 0.9 | 0.9
Cc1cccc(N2CCN(C(=O)CSc3ccccc3Cl)CC2)c1C
 : 3.8 | 3.1
Cc1ccccc1N1CCN(C2CCCN(C(=O)c3cccc(C(F)(F)F)c3)C2)CC1 (stereo not drawn)
 : 1.5 | 6.3
COc1cccc(C(=O)N2CCC3(CC2)C(=O)N(CC(=O)NCc2ccc(F)cc2)CN3c2ccccc2)c1
 : 21.0 | 16.9
Cn1nccc1-c1ccc2c(n1)C(=O)N(C1(C(=O)NCCCn3ccnc3)CC1)C2
 : -14.6 | -14.7
O=C(Nc1cccc(-c2ccc(F)cc2)c1)C1CCCN(C(=O)CCc2ccccn2)C1 (stereo not drawn)
 : -4.4 | -9.0
CC(c1cccc(-c2nccn2Cc2cccnc2)c1)N(C)C (stereo not drawn)
 : 32.6 | 13.8
CN(C)CCN(C(=O)c1ccc(Cl)s1)c1nc2ccc(S(C)(=O)=O)cc2s1
 : -12.8 | -17.2
COc1ccc(C2c3ccsc3CCN2CC(=O)N2CCN(C(=O)CCl)C(C)C2)cc1 (stereo not drawn)
 : 9.9 | 13.8
COc1cc(-c2nc3ccc(Br)cn3c2NC(C)(C)CC(C)(C)C)ccc1OS(=O)(=O)c1cccc(C(F)(F)F)c1
 : 2.7 | 14.0
COc1cccc(COC(CN2CCN(S(=O)(=O)c3ccc(Cl)cc3)CC2)c2ccc(Cl)cc2)c1 (stereo not drawn)
 : 21.8 | 11.3
CCc1nc(N2CCCC2)c(C#N)c2c1COC(C)(C)C2
 : 3.8 | 3.4
COc1ccc(C(=O)Nc2ccc(N3CCCC3)cn2)cc1
 : -0.2 | 0.5
CCc1ccc(C(NC(C)C(=O)Nc2c(C)nn(C)c2C)C(C)C)cc1 (stereo not drawn)
 : 1.8 | 1.3
CCOP(=O)(Cc1ccc(NC(=O)CC2(CC(=O)O)CCCC2)cc1)OCC
 : -9.2 | -18.3
CONC(=O)COC(c1ccccc1)c1ccccc1
 : 0.6 | 7.4
Cc1cccc(Cn2c(NC(C)c3ccccc3)nc3c2c(=O)[nH]c(=O)n3C)c1 (stereo not drawn)
 : 1.1 | 5.7
CC1Cc2ccccc2C1NC(=O)N1CCC(Cc2cnn(C)c2)C1 (stereo not drawn)
 : -0.4 | -0.6
Cc1ccccc1-n1c(SCCc2ccncc2)nnc1-c1ccncc1
 : -13.0 | -13.5
Cc1nnc(NC(=O)CN2C(=O)NC3(CC(C)CC(C)(C)C3)C2=O)s1 (stereo not drawn)
 : 2.9 | 12.0
CC(C)N(CCC(N)=O)Cc1cc2ccccc2o1
 : 1.1 | -1.3
COc1ccc(S(=O)(=O)NC(=O)C2(C)CCN2C(=O)CC2CC2)cc1 (stereo not drawn)
 : -2.5 | -4.8
OCCOC1CCCN(Cc2ccc3ccccc3n2)C1 (stereo not drawn)
 : 0.3 | -2.0
Nc1sc(=O)n(Nc2ccc(S(N)(=O)=O)cc2)c1N1CCOCC1
 : -1.8 | -0.4
Cc1ccc(-c2cccc(CN3CCN(C4CCN(C(C)C)CC4)C(CCO)C3)c2)o1 (stereo not drawn)
 : 6.4 | -6.0
COCc1nc(C(=O)NC2(c3ccc(F)cc3)CCC2)cs1
 : -1.6 | -2.7
O=C(COc1ccccc1Cl)NNS(=O)(=O)c1ccc(F)c(F)c1
 : -1.7 | -3.1
Cc1ccc(CN2CCN(C3CCCC3)CC2CCO)cc1 (stereo not drawn)
 : 9.3 | 13.3
CCOC(=O)c1c(NC(=O)/C=C/c2ccc(Cl)cc2Cl)sc(C(=O)Nc2ccccc2)c1C
 : -4.8 | 5.0
CC1(Cc2ccc(C(=O)c3ccccc3)cc2)C(=O)Nc2ccc(OC(F)(F)F)cc21 (stereo not drawn)
 : 3.2 | 2.9
CN(C)CCNC(=O)c1cc2n(n1)CCN(C(=O)c1ccc(=O)n(C)c1)C2
 : 0.5 | -4.1
COC(=O)c1cnc(/C=C/c2cc(C)c(O)c(C)c2)s1
 : 46.4* | 48.5*
CCCCCC(=O)NN=Cc1ccc(O)c(OC)c1
 : -1.6 | -2.3
O=c1cc(-c2ccc(Cl)cc2)[nH]c2ccc([N+](=O)[O-])cc12
 : 4.2 | 2.6
N#CC1C(=N)Oc2n[nH]c(-c3ccc(F)cc3)c2C1c1ccc(F)cc1 (stereo not drawn)
 : -1.3 | -4.1
COCC(c1ccccn1)N(C)C(=O)c1cccc2cc(C)oc12 (stereo not drawn)
 : -6.6 | -6.8
CC(=O)Nc1nc2c(s1)CC(C)CC2 (stereo not drawn)
 : 3.1 | 7.8
Cc1nc(C(=O)NCC2CCC3(CCN(Cc4c(F)ccc(F)c4F)CC3)O2)cs1 (stereo not drawn)
 : 18.0 | 8.0
CCCCCCCC(=O)N(CCOC)Cc1ccc(OS(=O)(=O)c2cccc(C(F)(F)F)c2)cc1
 : -12.3 | -13.5
O=C(Nc1c(C(=O)N2CCOCC2)oc2ccccc12)C1CCCCC1
 : -7.5 | -8.9
O=C(O)Cn1nnc2ccccc2c1=O
 : 3.9 | -0.7
CN(Cc1cccnc1)c1nncc(-c2cccc3ccccc23)n1
 : 15.2 | 9.1
CN(Cc1ccccc1)C(=O)CN1CN(c2ccccc2)C2(CCN(S(=O)(=O)c3ccc(Br)cc3)CC2)C1=O
 : 3.2 | 14.8
CN(C)c1ccc(C2C(S(=O)(=O)NCc3cccc(C(F)(F)F)c3)CON2C)cc1 (stereo not drawn)
 : 2.5 | -1.9
CC(C)(C)C1CCC(=NNC(=O)c2cc3c(s2)CCCC3)CC1 (stereo not drawn)
 : 6.1 | 4.4
C[C@H](NC(=O)c1ccco1)C(=O)NC1CCCCCC1
 : 5.8 | 4.6
COC(=O)[C@@H]1C[C@@H](NC(=O)c2ccc(-c3ccn[nH]3)cc2)CN1C
 : 4.1 | 2.6
CCOc1ccccc1-c1cnc(NC)cn1
 : 2.0 | -0.5
COc1ccccc1C(=O)Nc1ccnn1C1CCN(C(=O)c2cccs2)CC1
 : -1.2 | -2.5
COC(=O)c1cc2n(n1)CCN(C(=O)C(C)N1C[C@@H](C)O[C@@H](C)C1)C2 (stereo partly drawn)
 : 20.5 | 18.4
c1ccc(Cn2cc(CNC3CCCc4ccccc43)cn2)cc1 (stereo not drawn)
 : 7.3 | 6.8
COc1ccc(CN(Cc2cccc(C)c2)CC(O)COc2ccc(OC)cc2)cc1 (stereo not drawn)
 : 1.4 | 0.3
Oc1ccc(-c2csc(Nc3ccc(F)cc3)n2)cc1O
 : 2.3 | -2.4
CC1(C(=O)N2CCN(Cc3ccc(F)cc3)C(=O)C2)CCCO1 (stereo not drawn)
 : 5.7 | 3.3
Cc1ccc(CNC(=O)CCc2cc3c(n2-c2ccc(Cl)cc2)-c2ccccc2OC3)o1
 : 1.2 | 0.2

# 5 entries drawn at random from those above, as already listed:
# The line under a structure holds: NPYLR7 agonist | NPYLR7 agonist max-min
COCC(c1ccccn1)N(C)C(=O)c1cccc2cc(C)oc12 (stereo not drawn)
 : -6.6 | -6.8
C[C@H](NC(=O)c1ccco1)C(=O)NC1CCCCCC1
 : 5.8 | 4.6
O=C(Nc1c(C(=O)N2CCOCC2)oc2ccccc12)C1CCCCC1
 : -7.5 | -8.9
c1ccc(Cn2cc(CNC3CCCc4ccccc43)cn2)cc1 (stereo not drawn)
 : 7.3 | 6.8
COc1ccc(CN(Cc2cccc(C)c2)CC(O)COc2ccc(OC)cc2)cc1 (stereo not drawn)
 : 1.4 | 0.3

# Other records follow.
# The line under a structure holds: NPYLR7 agonist | NPYLR7 agonist max-min
CC1(C)CC(=O)CC(c2ccccc2)(C(F)(F)F)O1 (stereo not drawn)
 : -9.9 | -16.2
O=C(O)C1Cc2nc[nH]c2CN1C(=S)Nc1ccccc1 (stereo not drawn)
 : -1.0 | -11.0
CC(=O)c1cc(CN(Cc2ccccc2)Cc2nccs2)cs1
 : -2.2 | -1.5
COc1ccc(N2C(=O)CSC2c2cccc(C(F)(F)F)c2)cc1Cl (stereo not drawn)
 : -2.9 | -6.2
CCOC(=O)C1=C(C)Nc2ccccc2N=C1NC(=O)c1ccc(F)c(F)c1
 : 2.6 | 1.3
CCS(=O)(=O)c1ccc(CC(=O)N=c2sc3cc(F)cc(F)c3n2CCOC)cc1
 : -1.9 | -8.1
CCc1c(C)nc(-c2cccc(C(F)(F)F)c2)nc1N1CCNCC1
 : -2.4 | 7.4
CCCCn1nnnc1NCc1ccc(N(CC)CC)cc1
 : 0.6 | -0.7
COc1ccc(CN(CCc2c[nH]c3ccccc23)C(=O)CN(C(=O)c2ccc(F)cc2)C(C)C)cc1OC
 : 14.0 | 9.7
CCOC(=O)N1CCC(N2CCCC(Nc3ccc(F)c(F)c3)C2)CC1 (stereo not drawn)
 : 6.5 | 5.4
CCCN(CCC#N)C(=O)CN1CC2=C(C1=O)C(c1ccc(Cl)cc1Cl)NC(=O)N2CC (stereo not drawn)
 : -2.9 | 3.2
Cc1ccc(-n2nnnc2CNC(=O)c2cccc3ccccc23)cc1
 : -3.9 | -4.4
O=C(NCc1cccnc1)c1n[nH]c2c1CNCC2
 : 19.3 | 10.5
Cc1ccccc1C(=O)N1CCC2(CC1)C(=O)N(CC(=O)Nc1ccc(F)cc1)CN2c1ccccc1
 : -5.2 | 8.8
CCOC(=O)[C@@H]1[C@H](c2ccccc2)[C@@H](NCc2ccc(N3CCOCC3)cc2)[C@H]2CCCCN21
 : 34.4 | 44.7
Cc1cc(=O)n(C(C)C(=O)N2CCOCC2)c2c1c(C)nn2-c1ccccc1 (stereo not drawn)
 : -0.8 | -1.8
Cc1noc(C)c1CN(C)Cc1cn[nH]c1C(=O)O
 : 17.2 | 7.6
CSc1nc(SCC(N)=O)c2sc3c(c2n1)CCCC3
 : -6.8 | -11.7
Cc1c(C(=O)NNC(=O)N2CCCC2c2ccncc2)oc2ccccc12 (stereo not drawn)
 : 3.5 | 0.9
Cc1ccc(Nc2nc(N3CCN(c4ccc(F)cc4)CC3)nc3[nH]ncc23)cc1
 : 1.3 | -1.6
CN1CCCN(S(=O)(=O)c2cncc(F)c2)c2ccc(F)cc21
 : 0.5 | -6.2
O=C(c1ccco1)N1CCN(C(=O)c2cc3c(nc2Cl)CCC3)CC1
 : -3.5 | -9.7
O=C(NCc1ccc(-n2cncn2)cc1)c1ccc2oc(CCc3ccccc3)nc2c1
 : 15.6 | 9.7
O=C(c1ccc2snnc2c1)N1CCN(Cc2cccc(-c3noc(-c4cccc(Cl)c4)n3)c2)CC1
 : 17.0 | 9.4
O=C(c1cc(F)ccc1F)N1CCN(c2ccccc2[N+](=O)[O-])CC1
 : 1.8 | -1.6
Cc1ccc(-n2c(C)nn(CN3CCCC3c3ccccc3)c2=S)cc1 (stereo not drawn)
 : 0.9 | 1.7
NNC1=NC2(CCCCC2)Cc2ccccc21
 : 1.1 | 0.5
COCCCn1cc(C(=O)N2CCN(C(=O)C3CC3)CC2)c2nn(-c3ccccc3)c(=O)c-2c1
 : 3.8 | 3.0
CC(C)(NC(=O)c1cccs1)C(=O)N1CCCC(N2CCOCC2)C1 (stereo not drawn)
 : 10.5 | 6.3
COc1cccc(N=Nc2c(-c3ccccc3)[nH]n(-c3nc(-c4ccccc4)cs3)c2=O)c1
 : 2.6 | -1.3
Cc1ncc(CN2CCCC2C(=O)Nc2ccc(-c3nc4ccccc4o3)cc2)[nH]1 (stereo not drawn)
 : 11.1 | 4.8
O=C(NCc1ccc(CN2CCCC2)cc1)NC(c1cccs1)C1CC1 (stereo not drawn)
 : 8.4 | 1.6
CCOc1ccc(S(=O)(=O)N2c3ccccc3C(C(N)=O)CC2C)cc1OCC (stereo not drawn)
 : -10.1 | -10.9
CCOc1ccc(C(=O)Nc2ccc3[nH]cc(CCN4CCc5ccccc5C4)c3c2)cc1
 : -23.8 | -23.1
O=C(c1ncoc1-c1ccccc1)N(Cc1ccccc1)[C@@H]1CC[C@H]2C[C@@H]1[C@@H](O)CO2
 : 3.2 | 13.4
Cc1nnc(SCC(=O)N2CCNC2=O)n1C1CCCCC1
 : 1.0 | -2.2
CCOC(=O)c1nn(-c2ccccc2)c(=O)c2c(NC(=O)COc3ccc(Cl)cc3)scc12
 : -1.2 | -3.1
CCN1CCCC1CNC(=O)CCC1CCN(Cc2[nH]c3ccc(OC)cc3c2C)CC1 (stereo not drawn)
 : 3.0 | -1.6
COc1cc(NS(=O)(=O)/C=C/c2ccccc2)c(C(=O)N(C)C)cc1OC
 : 11.0 | 7.0
CCN(CC)CCCNC1CCCC1
 : 4.6 | 2.1
CCOc1cccc2cc(C(N)=O)c(=Nc3ccc(Cl)cc3)oc12
 : -6.8 | -8.5
CN1[C@@H](CCC(=O)NCc2ccc(F)cc2)CNC(=O)[C@H]2NCC[C@H]21
 : -9.2 | -11.9
CCOC(=O)c1cnc2c(c1)c(C#N)cn2CC(=O)Nc1nnc(C)s1
 : 0.1 | -3.2
CC(CC(C)C)=NNc1ccc(S(N)(=O)=O)cc1[N+](=O)[O-]
 : -2.7 | -5.7
COCCN(Cc1csc(COc2cc(C)cc(C)c2C)n1)C(=O)c1cccc(OC)c1
 : 4.1 | 9.7
Cc1c(C(=O)N2CCN(C(c3ccccc3)c3ccc(Br)cc3)CC2)oc2ccccc12 (stereo not drawn)
 : 24.3 | 20.0
COCC(=O)NCCOc1ccc(-c2ccc(C)cc2)nn1
 : -9.2 | -8.9
CCCNC(=O)Cn1cc(OC)c(=O)cc1CN1CCN(c2ccccc2)CC1
 : -1.1 | -1.0

# 2 entries from above in a different format.
mol	NPYLR7 agonist	NPYLR7 agonist max-min
CCN1CCCC1CNC(=O)CCC1CCN(Cc2[nH]c3ccc(OC)cc3c2C)CC1 (stereo not drawn)	3.0	-1.6
COc1cc(NS(=O)(=O)/C=C/c2ccccc2)c(C(=O)N(C)C)cc1OC	11.0	7.0
